Screening results from PubChem.
T cruzi repl = blocks replication of Trypanosoma cruzi. T. cruzi beta-gal in NIH3T3, luminescence, 90 h. inhibition, % (concentration not given with the values). 1.4% of 300,000 active. AID 1885;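 active = mean inhibition across valid replicates above about 55%, limit read from the data; inconclusive = mean below that limit but half or more replicates reach it; inactive = mean below it, under half of replicates reach it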;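 note: signal also drops with host cell toxicity which is not excluded here; 0% = plate median of DMSO wells and 100% = zero luminescence signal; higher percent means less beta-gal luminescence so fewer parasites; stock transfer was 50 nL into about 50 µL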
Calb FLC = affects C. albicans growth with fluconazole; 0.57% of 300,000 active; C. albicans CaCi-2 (fluconazole-resistant clinical isolate) + fluconazole, Alamar Blue growth, 48 h; growth inhibition, % (no concentration beside the values); AID 1979;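 active = most replicates above 75%; inconclusive = exactly half above 75%; inactive = most below 75%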;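 note: all wells also contain fluconazole at 8 µg/ml as a sub-toxic cotreatment; 0% = median of DMSO wells and 100% = median of geldanamycin control wells; wells of about 8 µL received 7.5 nL stock; the first replicate is given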
RanGTP-Impb inh = disruptors of Ran-importin-beta complex formation – biochemical, FRET, CFP-Ran, YFP-importin-beta, homogeneous, primary screen. inhibition, % (concentration not given with the values). cell-free CFP-Ran/YFP-importin-beta FRET ratio. 1.1% of 300,000 active. AID 2216;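 active = most replicates above 15%; inconclusive = exactly half above 15%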;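 note: 0% = DMSO wells and 100% = Ran loaded with GDP instead of GTP; wells of about 40 µL received 100 nL stock; the first replicate is given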
MLL AF4-AF9 inh = blocks AF4 peptide binding to human AF9 | 0.47% of 350,000 active | inhibition, % at 10 µM | AID 651704 | AlphaScreen, biotin-AF4 peptide binding to FLAG-AF9 | P42568;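 active = every replicate reaching a set inhibition limit, whatever the replicate mean, cut at about 25% in these data; inconclusive = mean inhibition reaches that limit but some replicates miss it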;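 note: 0% = plate neutral control median and 100% = total signal loss; the record names both 10 and 1 µM as test concentration; the first replicate is given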
Target sequence (P42568 whole entry, looked up): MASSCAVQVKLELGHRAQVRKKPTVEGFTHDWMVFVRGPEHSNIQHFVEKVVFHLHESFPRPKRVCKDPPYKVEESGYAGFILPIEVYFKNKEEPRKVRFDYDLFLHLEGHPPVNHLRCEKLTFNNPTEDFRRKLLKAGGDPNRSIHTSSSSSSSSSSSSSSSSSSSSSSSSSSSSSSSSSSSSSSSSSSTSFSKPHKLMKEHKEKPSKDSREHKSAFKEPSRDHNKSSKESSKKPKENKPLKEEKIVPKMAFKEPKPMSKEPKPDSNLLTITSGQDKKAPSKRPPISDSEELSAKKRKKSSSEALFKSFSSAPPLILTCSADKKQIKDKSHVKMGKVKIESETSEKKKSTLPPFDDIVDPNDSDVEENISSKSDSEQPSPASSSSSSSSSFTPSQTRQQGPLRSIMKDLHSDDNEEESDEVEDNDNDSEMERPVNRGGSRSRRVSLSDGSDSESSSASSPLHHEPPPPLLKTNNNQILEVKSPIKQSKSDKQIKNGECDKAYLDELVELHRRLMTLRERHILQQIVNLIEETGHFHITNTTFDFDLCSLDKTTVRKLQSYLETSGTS
Beta apoptosis = blocks beta cell apoptosis; 0.8% of 300,000 active; protection from apoptosis, % (concentration not given with the values); INS-1E cytokine-induced death, ATP luminescence, 48 h; percent of positive-control rescue, neutral wells zero;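 active = all replicates at 75% or more, or half of them and the mean; inconclusive = half reach 75% but not the mean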;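 note: 0% = cytokine-treated negative control wells and 100% = positive control rescue; higher means more ATP so stronger rescue from cytokine killing; wells of about 40 µL received 100 nL stock; the first replicate is given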
LANA-H2B inh = blocks KSHV LANA binding to histone H2A/H2B; inhibition, % (test concentration not listed); AID 2629; cell-free LANA-H2A/H2B peptide, fluorescence polarization; 0.6% of 320,000 active; Q9QR71; in the data active = inhibition mostly above about 10%, no sharp cut-off; inactive = mostly below about 6.7%;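 note: stock transfer was 7.5 nL into about 10 µL; 0% = median of vehicle wells and 100% = median of positive control wells; one replicate is shown; the record names a cut of 25% in any replicate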
Bfl-1 A1 inh = inhibitors of the anti-apoptotic protein A1, read as caspase activation; caspase activation, % (test concentration not listed); 0.066% of 330,000 active; MEF A1-2A-BIM cells, Caspase-Glo 3/7 luminescence, 3 h; percent of clofoctol response, vehicle zero; AID 2462;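 active = over half of replicate activation scores above 10%, or exactly half above 10 with the replicate mean above 10; inconclusive = replicate mean below 10 yet half the replicates above 10; inactive = over half of replicates below 10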;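 note: wells of about 30 µL received 50 nL stock; many hits fall short of the cut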
Vif TR-FRET = HIV-1 Vif–A3G interaction blockers – biochemical, TR-FRET, GST-Vif 1-94, biotin-A3G peptide, dose response retest, primary screen (AID 1117319); TR-FRET GST-Vif / biotin-A3G peptide binding; higher % means a stronger effect; test concentration not given here; strong numbers were not always called active; inhibition, %, or IC50 in µM where a hit was titrated; 0.57% of 260,000 active;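 active = above the screen mean plus three standard deviations and confirmed in dose response; inconclusive = results disagree or hit not tested in dose response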;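 note: Vif residues 1-94 fused to GST binding biotinylated APOBEC3G peptide 110-148; 0% = full assay without inhibitor and 100% = GST in place of GST-Vif; retest series ran down from 100 µM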
Numbers without * were called inactive; ? = inconclusive; . = not tested or not shown; & = joins results of further samples.

SMILES	T cruzi repl	Calb FLC	RanGTP-Impb inh	MLL AF4-AF9 inh	Beta apoptosis	LANA-H2B inh	Bfl-1 A1 inh	Vif TR-FRET
C#CCNC(=O)C1=C[C@H](C2CCCCC2)C[C@H](OCc2ccc(CO)cc2)O1	-10.5	-5.9	-0.1	2.2&-5.6	-9.3	2.4	-0.3	.
CN(C)c1ccc(S(=O)(=O)NCC(=O)NCCOc2ccccc2F)cc1[N+](=O)[O-]	-1.3	1.2	-2.6	3.3	-0.8	2.0	0.2	0.6%
C=CCn1c(SCc2c(C)noc2C)nnc1C1COc2ccccc2O1 (stereo not drawn)	-1.4	5.8	3.8	.	1.0	-2.8	1.0	-5.3%
CN=c1scc(-c2ccccc2Br)n1/N=C/c1ccc[nH]1	29.1	20.7	-7.1	.	12.2	-4.2	-5.9	.
Cc1cc2nc(C3CCCN(C(=O)NCc4ccccc4)C3)[nH]c2cc1C (stereo not drawn)	-2.9	14.4	3.8	.	-3.2	2.9	0.0	-0.8%
Cc1ccc(C)c(C(=O)CSc2n[nH]c(C(C)C)n2)c1	5.8	0.0	-5.8	.	-0.6	2.7	0.1	3.3%
CCOc1ccc(C(=O)CC(NCc2cccs2)C(=O)O)cc1 (stereo not drawn)	-17.1	-2.8	-1.5	-4.1	.	-5.3	1.2	15.6%
CCOC(=O)Cc1csc(Nc2ccc(Cl)cc2)n1	28.0	-35.3	9.3	-3.1	-2.0	-4.7	-0.4	-2.4%
COc1cccc(CN(C(=O)c2cc3ccccc3oc2=O)C2CCS(=O)(=O)C2)c1 (stereo not drawn)	-18.3	10.5	4.6	-1.4	0.5	-0.1	1.7	6.4%
Cc1ccc(C)c(NC(=S)NCC(c2ccccc2)N(C)C)c1 (stereo not drawn)	-15.2	3.3	1.7	2.1	1.9	0.3	-0.2	1.1%
COc1ccc(CC(=O)n2nc(-c3ccccc3)nc2NCc2ccco2)cc1	11.8	-3.9	7.2	.	-3.5	-0.8	0.1	15.2%
O=C(c1ccco1)N1CCN(CCCCN2C(=O)c3ccccc3C2=O)CC1	-3.1	3.7	-1.2	-1.5	-7.6	-6.1	0.2	1.5%
CCOc1ccc(NC(=O)CN(C)C(=O)C(C)N2C(=O)c3ccccc3C2=O)cc1OCC (stereo not drawn)	.	.	.	-1.5	2.4	8.2	0.9	-18.0%
COc1ccc(CCNC(=O)CCN2C(=O)[C@@H]3Cc4ccccc4CN3C2=O)cc1OC	-5.3	-1.3	-1.1	-2.8	-0.6	2.3	-0.3	.
O=C1C2C3C=CC(C4CC34)C2C(=O)N1Cc1ccccc1 (stereo not drawn)	-8.3	24.9	3.7	3.1	-2.1	9.7	-0.5	.
CCOc1ccc(NC(=O)COc2ccc(C(=O)NCc3cccnc3)cc2OC)cc1	1.9	8.5	1.3	-1.4	.	-0.3	-0.2	1.6%
COCC(=O)N(C)c1nnc(-c2cnccn2)s1	-14.1	7.3	0.4	.	-9.4	4.3	0.6	-2.3%
CCn1c(CC(=O)Nc2ccc(C)cc2)nnc1SCC(=O)N1CCN(c2ccccc2)CC1	8.1	-4.1	3.4	.	-10.2	1.9	0.2	5.2%
CC(CC(=O)OCC(=O)Nc1ccc2[nH]c(=O)[nH]c2c1)c1ccccc1 (stereo not drawn)	.	.	.	-2.5	2.3	7.5	-1.3	.
Cn1c(=O)n(Cc2ccc(Cl)cc2)c2ccccc21	1.4	-3.5	0.8	8.3	.	-4.1	0.6	4.7%
Cc1cc2c(cc1S(=O)(=O)N1CCN(c3cccc(C(F)(F)F)c3)CC1)OCC(=O)N2	34.7	9.9	1.3	1.1	.	.	.	.
Cc1cc(C)c(NC(=O)c2cn3c4c(c(N5CCN(C)CC5)c(F)cc4c2=O)OCC3C)c(C)c1 (stereo not drawn)	34.1	-19.6	-0.4	-11.4	4.0	.	-0.2	.
COc1cccc(C(=O)NC(=O)Nc2cc(C)[nH]n2)c1	-11.7	-6.9	1.9	4.8	1.5	-2.2	-2.0	-3.0%
CC(=O)NS(=O)(=O)c1ccc(NC(=O)COc2cccc3c2OC(C)(C)C3)cc1	-2.0	-3.0	1.2	-1.0	.	0.5	0.5	-9.1%
COc1cccc(CN2CCN(C(=O)C3CCC(=O)N(C4CCCC4)C3)CC2)c1 (stereo not drawn)	-6.5	-3.4	2.0	-1.4	-2.9	-4.6	-0.2	.
CNCc1ccccc1OCC(=O)Nc1ccccc1OC	-7.5	-4.5	1.3	.	-1.3	5.7	-0.3	-0.6%
Cc1cc(Cl)cc(Br)c1OCCCN1C(=O)NC(C)(C)C1=O	3.2	8.3	5.8	.	0.3	1.2	1.3	21.0%
CC(NC(=O)C(=O)NCC1CCCO1)c1ccccc1 (stereo not drawn)	0.7	-4.0	-0.1	-1.4	-3.0	3.9	-0.5	.
Cn1cccc1/C=N/NC(=O)c1cccc(OC(F)(F)C(F)F)c1	4.8	-9.7	1.1	12.6	6.0	-3.5	-1.2	.
CCOc1cc(C(=O)NCc2ccccc2)ccc1OCC(=O)N1CCCCC1	.	.	.	1.7	2.4	8.8	0.3	-10.7%
Cn1c(=O)n(C)c2cc(NS(C)(=O)=O)ccc21	-10.4	32.6	?	.	-5.7	1.7	0.0	4.2%
Cc1cccc(NCc2ccc([N+](=O)[O-])s2)c1	17.8	11.0	-1.4	9.7	9.6	0.4	-0.2	-4.0%
COc1ccc(S(=O)(=O)CCC(=O)N2CCN(c3cccc(Cl)c3)CC2)cc1	-2.9	-2.6	0.5	-1.5	-4.2	-0.9	-0.1	18.6%
O=C1/C(=C/c2ccc(F)cc2)CCC1C1CCCC1 (stereo not drawn)	-3.6	-21.1	-0.6	-1.8	0.6	0.3	-6.8	9.7%
Cc1ccc(S(=O)(=O)c2nnn3c2nc(N2CCN(c4ccccn4)CC2)c2ccccc23)cc1	21.7	8.0	2.1	1.9	9.9	-2.0	-0.4	.
CCCCCCNC(=O)Cc1nc2nc(C)cc(C)n2n1	-3.9	5.2	0.5	.	-1.7	-1.5	0.2	?
COc1ccc(N(C)C(=O)Cc2c(C(=O)O)n(C)c3ccccc23)cc1	-7.6	2.5	?	0.6	-5.2	6.1	-0.2	2.8%
O=c1[nH]c(Cn2nnc(-c3ccccc3)n2)nc2scc(-c3ccccc3)c12	-6.7	18.0	-1.3	.	2.9	-4.3	-1.6	-10.3%
Cc1cc(C)nc(NS(=O)(=O)c2ccc(NC(=S)NC(=O)C(C)C)cc2)n1	-0.6	-0.1	-0.8	.	-5.5	-0.4	-0.1	-4.7%
Cc1cc(OCC(=O)N(Cc2ccco2)c2c(N)n(Cc3ccccc3)c(=O)[nH]c2=O)ccc1Cl	.	.	.	5.8	-1.4	-1.6	0.7	-4.9%
CCOc1ccc(C(c2c(O)nc(SC)[nH]c2=O)c2c(O)nc(SC)[nH]c2=O)cc1	-2.6	2.3	7.1	-2.7	-0.5	-2.7	0.0	.
CC(NCc1ccccc1Cl)C(=O)Nc1ccc(S(=O)(=O)N2CCCC2)cc1 (stereo not drawn)	17.0	-2.5	-0.2	.	-1.7	.	0.1	0.8%
CN1C2C=C3C(C#N)=C(N)C(C#N)(C#N)[C@@H](c4cccc(F)c4)[C@@H]3C1CC2 (stereo partly drawn)	17.5	-4.6	-0.8	.	.	-4.0	0.5	3.4%
Cc1ccc(OCCNC(=O)c2cc(=O)[nH]c3ccccc23)cc1	-13.3	-2.6	-1.9	-1.8	.	-5.6	-0.7	-2.0%
CN1CCC(C2(O)c3ccccc3CSc3sccc32)CC1 (stereo not drawn)	.	.	.	.	-2.0	1.8	1.0	7.3%
O=C(Cn1c(CN2CCCCC2)nc2ccccc2c1=O)NCc1ccco1	-10.4	-6.9	5.4	.	3.3	-2.6	0.2	?
COc1cccc(-c2nn(-c3ccccc3)cc2/C=C(/NC(=O)c2ccccc2)C(=O)O)c1	-5.8	4.9	1.4	-2.2	-0.9	-0.6	0.4	-10.3%
Nc1c(C(=O)c2ccc(Br)cc2)oc2ccccc12	5.8	-5.8	3.9	1.4	-3.1	4.6	-2.5	-3.4%
COc1ccc(S(=O)(=O)NCC(=O)N(Cc2ccco2)C(C(=O)NC(C)(C)C)C(C)C)cc1 (stereo not drawn)	6.7	6.0	0.5	-2.7	-3.8	0.5	-0.5	.
CC(C)(CNC(=O)c1sc2cc(F)ccc2c1Cl)N1CCOCC1	15.9	18.9	-1.4	-2.3	-0.3	2.4	0.3	1.2%
CC(C)CN(C(=O)CSc1nncs1)c1c(N)n(CC(C)C)c(=O)[nH]c1=O	-10.6	2.2	-0.8	.	-4.0	-1.8	0.3	31.9%
CCOc1ccc(CNC2CCCc3ccccc32)cc1 (stereo not drawn)	-2.8	-30.8	0.2	-0.3	-6.7	5.3	-0.2	.
CCN1C(=O)[C@H]2[C@@H](c3ccc(-c4ccccc4)c(OC)c3)N[C@@](Cc3ccccc3)(C(=O)OC)[C@H]2C1=O	9.3	16.7	?	-2.5	4.9	2.8	0.1	.
O=C(CSc1nc2ccccc2c(=O)n1CC1CCCO1)NCc1ccc2c(c1)OCO2 (stereo not drawn)	9.0	-8.7	2.6	0.1	2.1	1.2	0.0	3.3%
O=C(NCCCn1ccnc1)/C(=C\c1cccs1)NC(=O)c1ccccc1	-0.5	-12.7	0.5	.	-2.0	2.9	-0.3	.
O=C(Cc1ccccc1)Nc1ccccc1CO	.	.	.	.	-0.3	-0.3	1.0	?
CCOc1cc(NS(C)(=O)=O)c(OCC)cc1NC(=O)c1cccs1	-3.4	13.8	4.8	.	0.6	0.7	0.7	2.9%
O=C(CNc1ccc(Br)cc1)Nc1ccc(S(=O)(=O)N2CCCC2)cc1	.	.	.	3.0	-2.6	-16.3	-0.3	.
Cc1ccc[n+](CC(=O)c2cc3ccccc3oc2=O)c1	-10.5	0.7	3.2	.	4.6	-0.2	0.1	>100µM*
COc1cc(-c2nnc(-c3cccnc3)o2)cc(OC)c1OC	-1.1	?	-6.3	-4.0	-1.7	3.4	-0.1	4.1%
(next part)
SMILES	T cruzi repl	Calb FLC	RanGTP-Impb inh	MLL AF4-AF9 inh	Beta apoptosis	LANA-H2B inh	Bfl-1 A1 inh	Vif TR-FRET
CCOC(=O)c1cn(Cc2ccc(Cl)cc2Cl)c2cc(C)nn2c1=O	-12.8	-10.2	0.9	-0.1	0.0	-2.5	-0.2	-13.3%
CCOC(=O)C1CCN(C(=O)Cc2ccc(-c3ccccc3)cc2)CC1	-7.3	0.9	3.3	-5.0	-9.7	-6.5	0.3	.
COc1ccc(NC(=O)CCS(=O)(=O)c2ccccc2)c(OC)c1	15.0	10.4	-2.3	.	-8.3	6.9	-0.9	-6.5%
COc1ccc(NC(=O)CSc2nccn2Cc2ccco2)cc1OC	-8.4	-1.9	3.2	-0.5	1.3	11.0	0.0	-7.1%
O=C(Cn1ccc([N+](=O)[O-])n1)NCc1ccco1	7.0	2.6	-1.5	5.7	-2.1	1.0	0.5	7.0%
